FGF22 binding: binders of human FGF22 protein, primary screen, FGF22 synaptogenesis inhibitor project, biophysical, thermal shift, single point. 1.5% of 340,000 active. calls only at 9.99 µM. recombinant FGF22 thermal shift, SYPRO orange fluorescence; percent of sucrose octasulfate shift, DMSO zero;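 active = melting point raised past a set limit in the mean and every replicate; three in four hits are not shown here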
Target sequence (Q9HCT0 whole entry, looked up): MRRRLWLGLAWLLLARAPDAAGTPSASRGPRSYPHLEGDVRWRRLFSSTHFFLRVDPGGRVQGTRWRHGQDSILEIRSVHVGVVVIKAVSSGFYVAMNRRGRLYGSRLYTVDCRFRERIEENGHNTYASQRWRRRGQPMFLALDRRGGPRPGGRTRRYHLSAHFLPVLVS
rRNA inh HTS: reduced GFP signal of wild-type E. coli, primary screen, bacterial rRNA inhibitor project, GFP/RFP fluorescence, OD600, single point. E. coli WT GFP vs humanized-ribosome RFP mutants, 24 h; stronger effect = lower value; DMSO median 0, no signal -100. GFP signal change (wild-type ribosome), % (test concentration not listed). 1.6% of 350,000 active. AID 720706, 2013;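 active = significant combined selectivity score with lowered wild-type GFP, culture density cut under 30%, mutant RFP and density less affected; inactive = any of these conditions unmet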; note: one replicate is shown; some compounds called inactive have numbers as strong as hits
rRNA inh HTS OD600: further read-out of rRNA inh HTS, marked with its call; OD600 change, %; measured here: OD600 growth;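 optical density of the mix in the first replicate; 0 = DMSO median and -100 = no signal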
rRNA inh HTS RFP: also measured in rRNA inh HTS; calls as there; RFP signal change, %; measured here: RFP humanized mutant strains;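 first replicate; 0 = DMSO median and -100 = no signal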
* marks the source's active call; other numbers are inactive results; i = inactive. A portion of the library; the hit share may differ from the screen's.

SMILES	FGF22 binding	rRNA inh HTS	rRNA inh HTS OD600	rRNA inh HTS RFP
Cc1ccc(S(=O)(=O)N[C@@H]2CC[C@@H](CCNC(=O)c3ccc4c(c3)OCO4)O[C@H]2CO)cc1	i	-1.5	0.8	-1.9
CC(C)C#Cc1ccc([C@@H]2[C@@H](CO)N3CCCCN(C(=O)c4ccc5c(c4)OCO5)C[C@@H]23)cc1	i	-53.9	-70.3	-5.2
C[C@@H]1CCCCO[C@H](CN(C)Cc2ccc(Cl)c(Cl)c2)[C@@H](C)CN([C@@H](C)CO)C(=O)c2cc(NC(=O)Nc3ccccc3)ccc2O1	i	0.2	1.6	2.3
C[C@@H]1CN([C@@H](C)CO)S(=O)(=O)c2ccc(C3=CCCC3)cc2O[C@@H]1CN(C)Cc1ccccc1	i	-17.8	-40.7	15.3
CCCC(O)C#Cc1cnc2c(c1)C(=O)N([C@H](C)CO)C[C@H](C)[C@H](CN(C)S(C)(=O)=O)O2 (stereo partly drawn)	i	1.8	20.0	0.2
COCCNC(=O)C[C@@H]1CC[C@@H]2[C@H](COc3ccc(NC(=O)C4CCOCC4)cc3C(=O)N2C)O1	i	-2.6	-3.6	-2.3
O=C(Nc1ccc2c(c1)[C@@H]1C[C@@H](CC(=O)N3CCOCC3)O[C@H](CO)[C@@H]1O2)C1CCC1	i	2.7	5.9	-1.3
CCCC#Cc1ccc2c(c1)O[C@H](CN(C)S(=O)(=O)c1cccc(F)c1)[C@@H](C)CN([C@H](C)CO)S2(=O)=O	i	1.5	3.7	-1.6
CC(C)[C@H](NC(=O)C1CC1)C(=O)N1CCC[C@H]1C(=O)NCCc1ccccc1Cl	i	14.3	-2.6	6.4
CO[C@@H]1CN(C)C(=O)c2ccc(NC(=O)Nc3ccccc3F)cc2OC[C@@H](C)N(C(=O)Nc2ccccc2F)C[C@H]1C	i	-3.2	-8.7	-0.3
C[C@H](CO)N1C[C@H](C)[C@H](CN(C)Cc2ccc(C(=O)Nc3ccccc3N)cc2)Oc2c(NC(=O)C3CCCCC3)cccc2C1=O	i	2.7	1.1	0.7
C[C@@H]1CN([C@@H](C)CO)C(=O)c2cc(NS(=O)(=O)c3ccc(Cl)cc3)ccc2O[C@@H](C)CCCCO[C@@H]1CN(C)C(=O)Cc1ccccc1	i	-3.1	-7.7	-0.2
Cc1noc(C)c1NC(=O)N(C)C[C@H]1Oc2ccc(NS(=O)(=O)c3ccc(Cl)cc3)cc2CC(=O)N([C@H](C)CO)C[C@H]1C	i	1.4	1.7	0.6
CC(C)NC(=O)N(C)C[C@@H]1Oc2c(NC(=O)C3CC3)cccc2C(=O)N([C@@H](C)CO)C[C@H]1C	i	3.3	9.0	-1.8
C[C@@H]1CN([C@H](C)CO)C(=O)c2cc(C#CCN(C)C)cnc2O[C@H]1CN(C)C(=O)NC1CCCC1	i	3.5	11.4	-1.4
COc1ccc(CN(C)C[C@@H]2OCCCC[C@H](C)Oc3ccc(NS(=O)(=O)c4ccc(Cl)cc4)cc3C(=O)N([C@H](C)CO)C[C@H]2C)cc1	i	-33.2	-57.3	29.1
C[C@H](O)C#Cc1ccc([C@@H]2[C@H](CO)N3CCCCN(C(=O)c4ccc5c(c4)OCO5)C[C@@H]23)cc1	i	-0.2	-5.2	-1.7
O=C(C1CC1)N1CC[C@@H]2[C@H](CO)Nc3ccc(-c4ccc(F)cc4)cc3[C@@H]21	i	-0.4	-19.5	0.9
Cc1ccc(-c2ccc([C@@H]3[C@@H](CO)N4CCCCN(C(=O)c5ccncc5)C[C@@H]34)cc2)cc1	i	-0.3	-24.9	15.1
C[C@H]1CN([C@@H](C)CO)C(=O)c2cc(NS(=O)(=O)c3cn(C)cn3)ccc2O[C@H]1CN(C)C(=O)Nc1ccc2c(c1)OCO2	i	2.7	6.6	-0.5
O=C(c1cccc(F)c1)N1CCCCN2[C@H](CO)[C@H](c3ccc(-c4ccncc4)cc3)[C@@H]2C1	i	-2.0	-1.9	4.6
C[C@H](CO)N1C[C@H](C)[C@@H](CN(C)Cc2ccc(Cl)c(Cl)c2)Oc2ccc(NC(=O)CCN3CCOCC3)cc2C1=O	i	-8.0	-18.4	3.7
Cc1ccc(S(=O)(=O)Nc2cccc3c2O[C@H](CN(C)Cc2ccc(C(F)(F)F)cc2)[C@H](C)CN([C@H](C)CO)C3=O)cc1	i	0.9	-17.8	-0.1
C[C@@H]1CN([C@H](C)CO)C(=O)c2cc(NC(=O)Nc3ccc4c(c3)OCO4)ccc2O[C@@H]1CN(C)C(=O)Nc1ccc(F)cc1	i	-2.3	-3.5	1.9
COC(=O)C[C@@H]1CC[C@H](NC(=O)Nc2ccc(C(F)(F)F)cc2)[C@@H](CO)O1	i	-5.9	1.6	1.3
CCCN1[C@@H]2c3ccc(/C=C/c4ccccc4)c(=O)n3C[C@H]1[C@H](CO)[C@H]2C(=O)NCC1CC1	i	0.3	-6.6	1.3
O=S(=O)(c1cccc(F)c1)N1CC[C@@H]2[C@@H](CO)Nc3ccc(Br)cc3[C@@H]21	i	-25.5	-45.6	2.2
O=S(=O)(c1cccc(F)c1)N1CC[C@H]2[C@H](CO)Nc3ccc(-c4cccc(F)c4)cc3[C@H]21	i	-17.1	-61.5	11.2
CCCNC(=O)N1C[C@H]2[C@@H](c3ccccc31)[C@@H](CO)N2Cc1ccc(OC)cc1	i	-0.9	-5.2	1.7
CN1C(=O)c2cc(NC(=O)c3ccno3)ccc2OC[C@H]2O[C@@H](CC(=O)Nc3ccccc3)CC[C@@H]21	i	-1.6	9.3	0.4
O=C(NCC[C@@H]1CC[C@@H](NC(=O)C2CCCCC2)[C@@H](CO)O1)c1cnccn1	i	-2.2	-2.0	-1.3
Cc1noc(C)c1S(=O)(=O)N(C)C[C@@H]1Oc2c(NS(C)(=O)=O)cccc2C(=O)N([C@@H](C)CO)C[C@H]1C	i	0.9	2.2	-0.9
CO[C@H]1CN(C)C(=O)c2cc(C#N)ccc2OC[C@H]2O[C@H](CC[C@@H]2OC)CCN(C)C(=O)[C@H]1C	i	-0.1	7.7	-2.5
CN1c2ccc(Br)cc2[C@H]2[C@H](CCN2C(=O)Nc2ccccc2F)[C@H]1CO	i	-14.5	-60.4	11.2
COCCNC(=O)C[C@H]1CC[C@H]2[C@H](COc3ccc(NC(C)=O)cc3C(=O)N2C)O1	i	0.9	2.6	-1.4
C[C@@H]1CN([C@@H](C)CO)C(=O)c2cccc(NC(=O)C3CC3)c2O[C@@H]1CN(C)Cc1ccc(Cl)c(Cl)c1	i	2.5	-0.3	-2.6
CCNC(=O)C[C@H]1CC[C@H]2[C@@H](COc3ccc(NC(=O)c4ccc(C#N)cc4)cc3C(=O)N2C)O1	i	1.1	1.9	-1.5
O=C([C@H]1[C@H](CO)[C@H]2Cn3c(cccc3=O)[C@@H]1N2Cc1cccc(Cl)c1)N1CCCCC1	i	-5.4	-11.7	-3.7
O=C(C[C@H]1C=C[C@H](NS(=O)(=O)c2cccc(F)c2)[C@@H](CO)O1)N1CCCCC1	i	2.7	-3.0	-0.9
N#C[C@H]1[C@@H](c2ccc(C3=CCCCC3)cc2)[C@@H](CO)N1C(=O)Nc1ccccc1F	i	1.7	-4.4	-0.1
CC(C)NC(=O)N(C)C[C@H]1OCCCC[C@@H](C)Oc2ccc(NC(=O)c3ccccc3)cc2C(=O)N([C@@H](C)CO)C[C@H]1C	i	-20.4*	-7.0*	1.3*
C[C@H](CO)N1C[C@H](C)[C@@H](CN(C)C(=O)Nc2ccccc2)Oc2ccc(NC(=O)NC3CCCCC3)cc2CC1=O	i	-2.2	-0.8	-0.2
COCC(=O)Nc1ccc2c(c1)C(=O)N(C)C[C@@H](OC)[C@@H](C)CN(C(=O)c1cnccn1)[C@H](C)CO2	i	3.0	7.0	-3.1
COCC(=O)N1CC[C@@H]2[C@@H](CO)Nc3ccc(-c4ccc(C(=O)N(C)C)cc4)cc3[C@@H]21	i	5.9	16.4	2.0
CCC(=O)N[C@H]1C=C[C@H](CC(=O)NCC2CCCCC2)O[C@@H]1CO	i	3.3	8.3	-0.3
CC(C)CC#Cc1ccc2c(c1)O[C@@H](CN(C)Cc1cncnc1)[C@H](C)CN([C@H](C)CO)S2(=O)=O	i	-22.6	-52.7	31.8
O=C(C[C@H]1C=C[C@@H](NC(=O)c2cnccn2)[C@@H](CO)O1)NCc1ccccc1F	i	1.5	10.2	-1.7
O=C(NCc1ccncn1)[C@H]1[C@H](CO)[C@H]2Cn3c(ccc(-c4ccncc4)c3=O)[C@H]2N1CC1CC1	i	1.3	2.2	-1.2
C[C@H]1CN([C@@H](C)CO)C(=O)Cc2cc(NS(=O)(=O)c3cn(C)cn3)ccc2O[C@@H]1CN(C)S(=O)(=O)c1ccc(F)cc1	i	0.5	-0.8	-1.1
C[C@H](CO)N1C[C@H](C)[C@H](CN(C)S(=O)(=O)c2cccs2)Oc2ccc(NS(C)(=O)=O)cc2C1=O	i	1.3	8.4	-0.2
(listing goes on)
SMILES	FGF22 binding	rRNA inh HTS	rRNA inh HTS OD600	rRNA inh HTS RFP
C[C@H](CO)N1C[C@H](C)[C@H](CN(C)C(=O)Nc2ccccc2)OCCCC[C@H](C)Oc2ccc(NS(=O)(=O)c3ccc(F)cc3)cc2C1=O	i	-2.1	-5.2	-1.8
C[C@@H]1CCCCO[C@@H](CN(C)Cc2ccc(C(F)(F)F)cc2)[C@@H](C)CN([C@@H](C)CO)C(=O)c2cc(NC(=O)c3ccncc3)ccc2O1	i	2.5	-16.6	10.5
CC(C)NC(=O)Nc1ccc2c(c1)C(=O)N([C@H](C)CO)C[C@H](C)[C@@H](CN(C)C(=O)Cc1ccccc1)OCCCC[C@@H](C)O2	i	-0.5	4.3	-1.8
COc1ccc(NC(=O)Nc2cccc3c2O[C@H](CN(C)Cc2ccccc2)[C@@H](C)CN([C@@H](C)CO)C3=O)cc1	i	0.9	5.3	-0.9
C[C@H](CO)N1C[C@H](C)[C@H](CN(C)Cc2cncnc2)Oc2ncc(C#CC3CCCCC3)cc2C1=O	i	3.2	6.2	1.6
C[C@@H]1CN([C@@H](C)CO)C(=O)c2cc(-c3ccccc3)cnc2O[C@H]1CN(C)C(=O)Nc1ccccc1F	i	-0.6	3.4	1.8
O=C(NCC[C@H]1CC[C@H](NS(=O)(=O)c2cccc(F)c2)[C@@H](CO)O1)Nc1cc(F)ccc1F	i	-6.6	-6.6	-0.2
C[C@@H]1CN([C@H](C)CO)C(=O)c2cc(NC(=O)CCC(F)(F)F)ccc2O[C@H]1CN(C)S(=O)(=O)c1ccc(Cl)cc1	i	2.9	-2.6	-1.0
CN1C(=O)c2cc(NC(=O)C3CCCCC3)ccc2OC[C@@H]2O[C@H](CC(=O)NCc3ccccc3F)CC[C@H]21	i	-1.5	-6.9	-0.1
Cc1noc(C)c1NC(=O)N(C)C[C@H]1Oc2ccc(NC(=O)C3CC3)cc2C(=O)N([C@H](C)CO)C[C@H]1C	i	4.3	8.5	-2.0

An excerpt from above in order of length of the SMILES, smallest number first:
SMILES	FGF22 binding	rRNA inh HTS	rRNA inh HTS OD600	rRNA inh HTS RFP
C[C@H](CO)N1C[C@H](C)[C@H](CN(C)Cc2cncnc2)Oc2ncc(C#CC3CCCCC3)cc2C1=O	i	3.2	6.2	1.6
C[C@@H]1CN([C@@H](C)CO)C(=O)c2cc(-c3ccccc3)cnc2O[C@H]1CN(C)C(=O)Nc1ccccc1F	i	-0.6	3.4	1.8
CN1C(=O)c2cc(NC(=O)C3CCCCC3)ccc2OC[C@@H]2O[C@H](CC(=O)NCc3ccccc3F)CC[C@H]21	i	-1.5	-6.9	-0.1
Cc1noc(C)c1NC(=O)N(C)C[C@H]1Oc2ccc(NC(=O)C3CC3)cc2C(=O)N([C@H](C)CO)C[C@H]1C	i	4.3	8.5	-2.0
COc1ccc(NC(=O)Nc2cccc3c2O[C@H](CN(C)Cc2ccccc2)[C@@H](C)CN([C@@H](C)CO)C3=O)cc1	i	0.9	5.3	-0.9
C[C@@H]1CN([C@H](C)CO)C(=O)c2cc(NC(=O)CCC(F)(F)F)ccc2O[C@H]1CN(C)S(=O)(=O)c1ccc(Cl)cc1	i	2.9	-2.6	-1.0

Carrying on.
SMILES	FGF22 binding	rRNA inh HTS	rRNA inh HTS OD600	rRNA inh HTS RFP
CO[C@@H]1CN(C)C(=O)c2cc(NC(=O)Nc3ccccc3)ccc2OC[C@@H](C)NC[C@@H]1C	i	-1.8	-2.4	-1.6
COCC#Cc1ccc([C@H]2[C@H](CO)N3CCCCN(S(=O)(=O)c4ccc(OC)cc4)C[C@@H]23)cc1	i	1.8	7.3	2.0
C[C@H]1CN([C@@H](C)CO)C(=O)c2cccc(NS(C)(=O)=O)c2O[C@H]1CN(C)Cc1ccc(C(=O)Nc2ccccc2N)cc1	i	0.4	-5.5	-0.1
CO[C@H]1CN(C)C(=O)c2ccc(NS(C)(=O)=O)cc2OC[C@@H](C)N(CC2CCOCC2)C[C@@H]1C	i	-0.6	3.5	-0.9
C[C@H]1CN([C@@H](C)CO)C(=O)Cc2cc(NC(=O)CCC(F)(F)F)ccc2O[C@H]1CN(C)Cc1ccc(Cl)c(Cl)c1	i	-8.6	-15.3	1.3
Cc1ccc(S(=O)(=O)N[C@@H]2C=C[C@@H](CC(=O)NCc3ccccc3F)O[C@H]2CO)cc1	i	-1.8	-5.9	-0.3
CC(C)NC(=O)N(C)C[C@H]1Oc2ccc(NC(=O)Nc3ccc4c(c3)OCO4)cc2CC(=O)N([C@H](C)CO)C[C@H]1C	i	0.7	1.0	-1.9
C[C@H]1CCCCO[C@H](CN(C)CC2CC2)[C@@H](C)CN([C@@H](C)CO)C(=O)c2cc(NS(C)(=O)=O)ccc2O1	i	0.8	6.2	-0.2

Source: PubChem (Broad Institute)
